# Bm FixLJ act: B. multivorans fixK reporter activation | AID 1918990 | B. multivorans fixK-promoter GFP reporter, 18 h; stronger effect = higher value | z-score (test concentration not listed) | actives 0.3% (n = 29,000);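 active means replicate mean overnight rise in green fluorescent reporter signal, 3 or more SD over negative controls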;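 further: score is relative to vehicle wells of the plate; 300 nL library stock went into each well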
# Active calls of the source: *.
SMILES,Bm FixLJ act
CC(=O)N(O)CCCCCNC(=O)CCC(=O)N(O)CCCCCNC(=O)CCC(=O)N(O)CCCCCN,-3.7
CCc1ccccc1NS(=O)(=O)c1ccc2[nH]cc(C(=O)NC3CCCC3)c(=O)c2c1,-1
CCC(C(=O)NCCc1cn2ccsc2n1)n1cccn1 (stereo not drawn),0.19
COc1ccccc1NC(=O)CSc1oc(-c2cccs2)nc1S(=O)(=O)c1ccc(Br)cc1,-1.6
Cc1cccc(NC(=O)CSc2nc3c(oc4ccccc43)c(=O)n2C(C)C)c1,0.3
COc1ccccc1CN(Cc1ccncc1)C(=O)CCc1nncn1C,0.77
COC1CC[C@@]2(OC)CCN(C(=O)c3c[nH]c4ccc(C)cc4c3=O)C2C1 (stereo partly drawn),1
Cn1c(=O)n(-c2ccc(F)c(Cl)c2)c(=O)c2sc3ccccc3c21,-1.7
COc1ccc(CCNC(=O)c2ccc(Cn3c(=O)c4ccccc4n(Cc4cc(C)ccc4C)c3=O)cc2)cc1OC,-1.9
COc1cccc(OC)c1-c1cc(C2CCC2)nc(N)c1C#N,-0.53
Cc1ccccc1-n1nc(CC(N)=O)nc1C(C)N1CCCCCC1 (stereo not drawn),-2.4
FC(F)(F)c1nnc(N2CCN(Cc3cccc(Cn4cccn4)c3)CC2)s1,-2.4
CCc1nnc2c(NCc3ccc(F)cc3)nc3ccccc3n12,-0.63
CCCN(CCC)C(=O)Cn1c(=O)n(-c2ccc(OC)cc2OC)c(=O)c2c3c(sc21)CCC3,-1.3
CC(C(=O)N1CCC(CNC(=O)c2cccc3nccnc23)CC1)n1cncn1 (stereo not drawn),-2.2
COc1ccc(CCNC(=O)c2cc3c(-c4ccc(OC)c(OC)c4)nn(C)c3s2)cc1OC,0.03
CNC(=O)c1cccc(NC(=O)Cc2cc3c(cc2Cl)OCCO3)c1C,0.02
CC(=O)N1CCc2cc(Br)cc(S(=O)(=O)NCCc3ccc(Cl)cc3)c21,-1.8
CCOc1cc(-c2nc3c(c(CC)nn3-c3ccccc3)c3cc(OC)c(OC)cc23)ccc1O,-1.2
COc1cccc(N2CCN(S(=O)(=O)c3ccc(-n4cnnn4)cc3)CC2)c1,-0.12
CC(C)(C)C1CCc2c(sc(NC(=O)c3cc(-c4ccc(F)cc4)on3)c2C#N)C1 (stereo not drawn),0.56
CC1=C(C(=O)OCC2CCCCC2)C(c2ccc(Cl)cc2)CC(=O)N1 (stereo not drawn),-0.5
Cc1nc2nc(SCC(=O)N(C)Cc3ccccc3)nn2c(C)c1Cc1ccccc1Cl,0.02
COc1ccc(-c2cc(-c3ccc4c(c3)NC(=O)CO4)nc3c2COc2ccc(C)cc2-3)cc1,-0.06
COCC(=O)Nc1ccc(NC(=O)C(C)Cn2cncn2)cc1OC (stereo not drawn),0.74
O=C(Nc1ccc(F)cc1)[C@H](CSCc1ccccc1)N1Cc2ccccc2C1=O,-0.36
Clc1ccc(-c2noc3ncnc(N4CCCCC4)c23)cc1,-1.1
Cn1nc(C(F)(F)F)cc1C(=O)NC1COCC1Cc1ccncc1 (stereo not drawn),-1.4
COc1ccc(OC)c(CCNC(=O)c2ccc3c(c2)N(Cc2ccc(C)cc2)CCS3)c1,-0.05
CCc1cccc(CC)c1NC(=O)C1CCC(CNS(=O)(=O)c2cccc3nsnc23)CC1 (stereo not drawn),-2.6
O=C1CCCN1CCc1nc(-c2ccccn2)nn1-c1ccc(F)c(F)c1,-0.61
COc1ccc(CCNC(=O)c2ccc3c(c2)N=C(C)c2ccccc2S3)cc1OC,-1.9
CC(C)c1ccc(OCc2cc(=O)n3c(-c4ccccc4)csc3n2)cc1,0.21
COc1ccc(S(=O)(=O)N(CC(=O)NCCc2ccccc2)c2ccc(Cl)cc2)cc1,0.18
COc1cc2c(cc1OC)C1(CCN(C(=O)CCNS(C)(=O)=O)CC1)OCC2,0.24
CCCCN(Cc1ccncc1)C(=O)C1CC(=O)Nc2ccc(OC)cc21 (stereo not drawn),0.12
CCCOc1ccc(NC(=O)CC2C(=O)N(c3ccc(C)cc3)C(=O)N2C2CCCC2)cc1 (stereo not drawn),-0.22
O=C(O)c1cc(O)c(O)c(O)c1,0.95
CC(C)C(=O)N1CCn2nc(CNc3cccc(C#N)n3)cc2C1,-0.56
CCC(c1nc(C)nn1-c1cccnc1)N1Cc2ccccc2C1=O (stereo not drawn),-0.76
CCn1c(C(=O)NCc2cccc(Br)c2)cc2oc3ccccc3c21,2.1
Cc1ccccc1NC(=O)Nc1cccs1,-0.72
COc1ccc(C(CNC(=O)c2oc3cc(C)c(Cl)cc3c2C)N2CCCCC2)cc1 (stereo not drawn),-0.53
O=C(Cn1nc(-c2ccccc2)c2cnc3ccccc3c21)Nc1ccccc1,-0.34
COCC(=O)N1CCc2[nH]cnc2C12CCN(C(=O)c1cncc(Cl)c1)CC2,-2
Cc1[nH]c2c(C(=O)N3CCCC(Cn4cc(C(=O)O)nn4)C3)cccc2c1C (stereo not drawn),-4.5
CCCCOc1ccccc1NC(=O)Cn1c(-c2cncs2)nc2ccccc21,-1.1
CCn1cc(C(=O)NCCc2ccc(C)cc2)c(=O)c2cc(S(=O)(=O)N(C)C)ccc21,-1.2
CCOC(=O)c1c(NC(=O)Cc2coc3ccc(CC)cc23)sc2c1CCC2,-0.37
CCCCC(=O)N(c1ccc2oc(C)c(C(C)=O)c2c1)S(=O)(=O)c1ccc(F)cc1C,-1.1

# (listing goes on)
SMILES,Bm FixLJ act
CCCCc1cn(CC2CCN(C(=O)C3CCCCC3)CC2)nn1,1
CCOc1ccc(/C=C/c2nc(C#N)c(NC(C)c3ccccc3)o2)cc1 (stereo not drawn),-1.9
CN1Cc2ccccc2CC1CNC(=O)c1ccc2nc(C(F)(F)F)[nH]c2c1 (stereo not drawn),-1.9
O=C(NCCCSCc1ccc(Cl)cc1)c1nnc2n1CCCCC2,-0.27
CCOC(=O)Cc1ccc(NC(=O)Nc2cc3c(cc2N2CCCCC2)n(C)c(=O)n3C)cc1,-0.9
COC(=O)c1ccc(N2C(=O)Cc3cc(OC)c(OC)cc3C2c2ccc(F)cc2)cc1 (stereo not drawn),-1.5
CCc1ccccc1NC(=O)C1CCCN(C(=O)c2cnn(-c3ccccc3)c2-n2cccc2)C1 (stereo not drawn),-3.7
CCn1c(=O)sc2cc(NC(=O)c3cccc(OC)c3)ccc21,-1
O=C(CSc1oc(-c2ccco2)nc1S(=O)(=O)c1ccc(Cl)cc1)Nc1ccc(F)cc1,-1.5
COc1ccccc1C(=O)N1c2ccccc2C(C)(c2ccc(Cl)cc2)CC1(C)C (stereo not drawn),0.48
CCn1c(=O)c2sccc2n2c(CCC(=O)N3CCN(c4ccc(C(C)=O)cc4)CC3)nnc12,-1.5
COc1ccc(C(=O)CC2(O)C(=O)N(Cc3cccc(C(F)(F)F)c3)c3ccccc32)cc1 (stereo not drawn),-0.74
CC1c2cc(F)ccc2CCN1C(=O)c1cnc(-c2ccccn2)nc1 (stereo not drawn),0.77
CCCOc1ccc(C2c3c(-c4ccccc4O)n[nH]c3C(=O)N2CCc2ccccc2)cc1OCC (stereo not drawn),-0.69
COc1cccc(-c2nc(SCC(=O)NCC3CCCO3)c(-c3ccc(F)cc3)[nH]2)c1 (stereo not drawn),1.2
Cc1ccc(O)c(-c2ccnc3cc(-c4ccc(Cl)cc4)nn23)c1,0.64
Cc1cc(-c2nc3ncccc3o2)ccc1NC(=O)c1ccc(Br)cc1,0.31
CCc1nonc1NC(=O)c1oc2ccc(C)cc2c1C,-0.66
CCOc1ccccc1C(=O)Nc1cc(-c2ccc(C)cc2)no1,-0.78
Fc1ccc(Nc2nc(Nc3ccc(F)cc3)nc(N3CCOCC3)n2)cc1,-1.9

# A run of entries taken from the entries so far, as a working copy:
SMILES,Bm FixLJ act
CC1c2cc(F)ccc2CCN1C(=O)c1cnc(-c2ccccn2)nc1 (stereo not drawn),0.77
CCCOc1ccc(C2c3c(-c4ccccc4O)n[nH]c3C(=O)N2CCc2ccccc2)cc1OCC (stereo not drawn),-0.69
COc1cccc(-c2nc(SCC(=O)NCC3CCCO3)c(-c3ccc(F)cc3)[nH]2)c1 (stereo not drawn),1.2
Cc1ccc(O)c(-c2ccnc3cc(-c4ccc(Cl)cc4)nn23)c1,0.64
Cc1cc(-c2nc3ncccc3o2)ccc1NC(=O)c1ccc(Br)cc1,0.31

# Ordered by SMILES length (ascending): part of the list above.
SMILES,Bm FixLJ act
CCc1nonc1NC(=O)c1oc2ccc(C)cc2c1C,-0.66
CCOc1ccccc1C(=O)Nc1cc(-c2ccc(C)cc2)no1,-0.78
Cc1cc(-c2nc3ncccc3o2)ccc1NC(=O)c1ccc(Br)cc1,0.31
COc1cccc(-c2nc(SCC(=O)NCC3CCCO3)c(-c3ccc(F)cc3)[nH]2)c1 (stereo not drawn),1.2
COc1ccc(C(=O)CC2(O)C(=O)N(Cc3cccc(C(F)(F)F)c3)c3ccccc32)cc1 (stereo not drawn),-0.74

# Next compounds.
SMILES,Bm FixLJ act
CCc1ccc(C2CC(=O)Nc3c2c(=O)n(C)c2ncnn32)cc1 (stereo not drawn),2
Cc1[nH]c2ccc(CNC(=O)CC3CCS(=O)(=O)C3)cc2c1C (stereo not drawn),1.2
NCC1CCCCC1CC(=O)O (stereo not drawn),-1.4
COC(=O)c1c(NC(=O)c2cc(=O)c3ccc(C)c(C)c3o2)sc2c1CCCC2,-0.59
Cc1ccc(S(=O)(=O)c2nc(-c3cccs3)oc2SCc2ccc(F)cc2)cc1,0.5
CCCCN(Cc1ccccc1)S(=O)(=O)c1ccc2c(c1)CC(C)N2C(=O)CC (stereo not drawn),1.7
Cc1cccc(C)c1NC(=O)CSc1nc(-c2cccs2)cc(C(F)(F)F)n1,-0.94
CCCc1[nH]ncc1C(=O)N1CCC[C@@]2(C3=CCOCC3)COCCC12 (stereo partly drawn),-1.1
COc1ccc(C2NC(=O)N(C)C3=C2C(=O)N(c2ccccc2)C3)cc1 (stereo not drawn),-1.9
O=C(Cc1ccc(C(F)(F)F)cc1)NC1COCC1Cc1ccncc1 (stereo not drawn),-3.2
CCCCN1CCN(Cc2coc(-c3ccccc3)n2)C2CS(=O)(=O)CC21 (stereo not drawn),-2
Cc1noc(/C=C/c2cccs2)c1S(=O)(=O)N1CCC(C(=O)NCc2ccc(Cl)cc2)CC1,0.59
CC(C)c1nnsc1CN1CCNC(=O)C1c1ccc(F)cc1 (stereo not drawn),-2.1
Cn1c(=O)c2c([nH]c(=O)n2Cc2ccc(Cl)cc2Cl)n(C)c1=O,-1.2
COc1ccc(CNC(=O)c2nc(SCc3ccc(C)cc3)ncc2Cl)cc1,-2.1
CCOCCCNC(=O)c1cc(=O)[nH]c2ccc(S(=O)(=O)N3CCCC3)cc12,0.25
CCCN(c1c(C)n(C)n(-c2ccccc2)c1=O)S(=O)(=O)c1ccc(C)cc1,-1.1
COc1ccc(CNC(=O)c2c3c(nc4ccccc24)C(=O)N(C2CCCCC2)C3)c(OC)c1,-2.9
O=C(c1cc2ccccc2oc1=O)N(Cc1cccc(Cl)c1)C1CCS(=O)(=O)C1 (stereo not drawn),0.54
CCOC(=O)c1ccc(NC(=O)c2cn(-c3ccccc3)nc2-c2ccc(Br)cc2)cc1,-0.49
COc1cccc(CNC(=O)Cn2nc(C)n3c(cc4cc(C)ccc43)c2=O)c1OC,1.2
CCC(Cc1ccccc1)NC(=O)c1cccc(Nc2nc3ccccc3nc2-n2nc(C)cc2C)c1 (stereo not drawn),0.71
COc1cc(C2SC[C@H]3C(=O)N(c4ccccc4)C(=O)N23)cc(OC)c1OC (stereo partly drawn),-0.93
COc1ccc(NC(=O)c2c(C)oc3ccc(O)c(CN4CCN(Cc5ccccc5)CC4)c23)cc1Cl,0.3
COCCCNC(=O)c1cc2c(=O)n3cccc(C)c3nc2s1,-2.4
Cc1ccc(Cn2c(-c3ccccc3)nc3ccccc32)cc1,-2.2
O=C(Cn1c(=O)c2ccccc2n(CC(=O)Nc2ccccc2F)c1=O)NCCc1ccccc1,-1.3
CC(C)Cn1cncc1CNC(=O)c1cc(S(N)(=O)=O)ccc1F,0.73
CCCCn1c(=N)n(CCOc2ccccc2OC)c2ccccc21,-0.31
COc1ccc2c(C)c(CCC(=O)NCCc3ccc(OC)c(OC)c3)c(=O)oc2c1,-2.6
CCNc1ncc(C(=O)N(Cc2ccc(O)cc2)Cc2cccnc2)cn1,-1.7
O=C(CCCc1cn[nH]c1)N1CCC2(CCC(=O)N(Cc3ccccn3)C2)CC1,-1.2
COc1ccc(Oc2c(C(F)(F)F)oc3c(CN4CCCC(C)C4)c(O)ccc3c2=O)cc1 (stereo not drawn),-1.6
Cc1ccc(C)n1-c1nnc(N2CCCC(C(=O)NCc3cccc(Br)c3)C2)s1 (stereo not drawn),0.82
COc1ccccc1Nc1c2c(nc3ccc(NC(=O)c4ccccc4F)cc13)CCCC2,0.14
CO/N=C(/C(=O)N[C@@H]1C(=O)N2C(C(=O)O)=C(COC(C)=O)CS[C@H]12)c1csc(N)n1,-4
Cc1oc2ccc(O)c(CN3CCN(Cc4ccccc4)CC3)c2c1C(=O)Nc1ccccc1,-0.08
CN(C)S(=O)(=O)c1ccc(C(=O)NCCSc2c(-c3ccccc3)[nH]c3ccccc23)cc1,1.1
COc1cccc(-n2c(SCC(=O)N(C)C)nnc2C2CCNCC2)c1,-0.91
Cc1ccc(C(=O)N(Cc2ccc(N(C)C)cc2)Cc2ccco2)cc1,-1.6
Cc1nc(SCC(=O)N2CCCC2c2ccccn2)n[nH]1 (stereo not drawn),0.37
CCc1ccc2oc(-c3ccc(C)c(NC(=O)Cc4ccccc4)c3)nc2c1,0.64
O=C(c1nc(N2CCCC2)nc2c1CCCC2)N1CCC(CO)C(O)C1 (stereo not drawn),-0.05
COC(=O)c1ccc(=O)c2nc3/c(=C/O)c(O)cc(=O)c3[nH]c12,0.62
COc1ccc(Nc2nc3ccccc3n3c(N)nnc23)cc1,-0.7
COc1ccc(-c2nc3ccccc3s2)cc1NC(=O)c1cc(OC)c(OC)c(OC)c1,-2.3
CCc1ccccc1C(=O)N1CCC2(CC1)c1nc[nH]c1CCN2C(=O)COC,0.84
CCCCSCCCNC(=O)c1cn(C)c2ccc(S(=O)(=O)N3CCCCC3)cc2c1=O,0.16
COc1ccc(F)c(-c2nc(CN3CCC(O)CC3)c(C)o2)c1,-1.3

# Screening results: PubChem BioAssay, ICCB-Longwood Screening Facility, Harvard Medical School

# The list is partial (hit frequency here may not be typical).
